Rango dissoc inh: prevents RanGTP from dissociating the Rango-importin beta complex. O95149+P62826. Biochemical FRET Rango-importin beta, RanGTP-induced dissociation. Potency, µM (titrated, usually from 46.1 µM), inactives show at the highest dose activity change, negative = inhibition. hit rate 0.071% among 340,000. AID 540253; active means falling FRET ratio curve, often poorly fitted, with flat reads before Ran was added; inconclusive means other falling curves, or compound fluorescence or quenching; inactive means flat or rising ratio curve;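 also: potency is read from the fitted curve at half-maximal effect; % of control where 0% means no effect; nearly all actives have a fitted effect of over 45% in size; -100% = wells without RanGTP and RCC1; the record marks most hits as doubtful in a second field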
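Recombinant Rango FRET biosensor (EYFP–snurportin 1 IBB–cerulean CFP10) at 0.1 uM premixed with 0.25 uM importin beta in PBS, 1 mM DTT, 0.02% Tween-20, 0.1% BSA. Compound added 5 min; RanGTP-RCC1 (0.6 uM Ran, 2 mM GTP, 0.2 uM RCC1) then triggers release, read at 45 min.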
GLA inh pH 4.5: alpha-galactosidase A (human) inhibition, pH 4.5. P06280. purified enzyme, 4-MU-alpha-Gal fluorescence, pH 4.5. activity change, negative = inhibition, % at 105 µM. 230,000 tested, under 10 active; inconclusive = small, poorly fitted or top-dose-only inhibition, or a rising curve; inactive = flat fitted curve, though single readings scatter; no compound was filed as active;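 also: 0% = full activity with enzyme and -100% = basal without enzyme; dose as in the result columns while the protocol names 77 µM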
Rango complex inh: prevents formation of the Rango-importin beta complex; Potency, µM (doses to about 92.2 µM), inactives show at the highest dose inhibition of complex formation; Q14974; hit rate 0.031% among 340,000; Rango CFP/YFP FRET sensor + importin beta, 45 min; AID 540263; active = rising FRET ratio curve, often small or poorly fitted; inconclusive = mostly compound fluorescence or quenching in the first reads; inactive = flat curves in all reads;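 also: potency is read from the fitted curve at half-maximal effect; 0% = DMSO wells and 100% = buffer wells lacking importin beta; nearly all actives have a fitted effect of over 15% in size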
Target sequence (Q14974 whole entry, looked up): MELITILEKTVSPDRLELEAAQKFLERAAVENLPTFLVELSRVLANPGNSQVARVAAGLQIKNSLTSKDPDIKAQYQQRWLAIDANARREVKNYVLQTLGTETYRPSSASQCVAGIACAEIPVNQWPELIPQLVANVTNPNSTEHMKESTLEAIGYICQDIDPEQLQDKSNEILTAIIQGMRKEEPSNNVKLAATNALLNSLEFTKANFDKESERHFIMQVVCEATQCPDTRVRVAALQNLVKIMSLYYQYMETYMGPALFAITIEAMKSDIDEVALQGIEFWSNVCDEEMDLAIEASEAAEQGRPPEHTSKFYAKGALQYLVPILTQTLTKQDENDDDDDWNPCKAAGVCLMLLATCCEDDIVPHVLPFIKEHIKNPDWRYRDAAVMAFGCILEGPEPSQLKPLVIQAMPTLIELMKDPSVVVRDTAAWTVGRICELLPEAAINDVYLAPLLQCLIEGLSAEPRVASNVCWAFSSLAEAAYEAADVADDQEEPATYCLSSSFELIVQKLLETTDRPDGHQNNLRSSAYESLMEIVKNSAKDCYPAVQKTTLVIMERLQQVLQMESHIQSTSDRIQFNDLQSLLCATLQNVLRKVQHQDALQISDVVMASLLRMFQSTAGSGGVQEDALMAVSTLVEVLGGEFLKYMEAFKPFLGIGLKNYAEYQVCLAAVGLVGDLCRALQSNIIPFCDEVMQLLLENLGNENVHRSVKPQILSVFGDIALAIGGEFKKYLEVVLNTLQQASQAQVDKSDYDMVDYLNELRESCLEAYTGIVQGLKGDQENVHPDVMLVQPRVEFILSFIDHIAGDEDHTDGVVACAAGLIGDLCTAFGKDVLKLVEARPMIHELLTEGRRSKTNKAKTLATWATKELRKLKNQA
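FRET biosensor Rango (snurportin 1 IBB between N-terminal EYFP and C-terminal Cerulean), 50 nM in PBS/1 mM DTT/0.02% Tween-20/0.1% BSA, preincubated 5 min RT with compound; 0.125 microM importin beta added, 45 min RT, CFP/YFP FRET ratio read.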
miR-21 FLuc: miR-21 reporter, rising signal. HeLa miR-21 FLuc reporter, luciferase, 48 h. Potency, µM (doses to about 38.3 µM), without a hit: top-dose reporter change, positive = more light. 340,000 tested, under 10 active; active = well fitted rising curve with a large enough effect; inconclusive = small, poorly fitted or top-dose-only effect; inactive = no such curve, though single readings can be large or run the other way;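 also: % of control where 0% means no effect; miR-21 action dims this reporter so a rising signal means less miR-21 action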
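HeLa miR-21-FLuc reporter line, endogenous miR-21; 2000 cells/well in DMEM/10% FBS; compound titration up to ~40uM final, 48 h, 37 degree Celsius; luciferase detection reagent, 15 min lysis, CCD luminescence.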
* = called active by the depositor; ? = inconclusive; nt = no result given; & = joins results of further samples. These rows are one share of the data; count on the stated rates, not on these rows.

SMILES	Rango dissoc inh	GLA inh pH 4.5	Rango complex inh	miR-21 FLuc
COc1ccc(N(CC(=O)Nc2ccccc2C(=O)NCCc2ccccc2)S(C)(=O)=O)cc1OC	0%	0	-2.1%	-19%
COC(=O)c1c(C(=O)OC)c(-c2cccc(C)c2)n2c1CS(=O)C2 (stereo not given)	3%	5	?	3%
O=C(NCc1cccnc1)c1nc(-c2ccc(C(F)(F)F)cc2)no1	-8%	-6	-1.6%	9%
COc1ccc(C(NC(=O)/C=C/c2ccco2)c2ccc(OC)c(OC)c2)cc1 (stereo not given)	-5%	-2	-1.4%	7%
CSc1nnc(-c2cccn(Cc3ccccc3)c2=O)o1	1%	?	0.0%	-9%
COc1ccc(C(=O)NC2CC2)cc1OC1CCN(Cc2ccc(F)cc2Cl)CC1	14%	nt	2.1%	nt
COc1ccc(CN2CCN(Cc3cc4ccccc4o3)CC2CCO)cc1C (stereo not given)	-20%	nt	?	0%
CCOC(=O)c1c(-c2ccc(C)c(C)c2)csc1NC(=O)C1CC=CCC1C(=O)O (stereo not given)	35%	-24	-0.5%	-1%
NC(=O)COC(=O)/C=C/c1ccccc1[N+](=O)[O-]	-1%	0	-2.2%	0%
CC(C)(C)c1ccc(S(=O)(=O)Nc2ccccn2)cc1	?	4	-1.5%	2%
CCOC(=O)[C@@H]1[C@H]2COc3ccc(Br)cc3[C@@H]2N2C(=O)N(c3cccc(Cl)c3)C(=O)[C@@]12C	-6%	nt	6.0%	nt
COc1ccc(-c2cc(C(F)(F)F)nc(SCC(=O)NCCCN3CCOCC3)n2)cc1	5%	-18	-3.9%	-2%
COc1cc(OC)c(CN2CCC(CO)(CCOc3ccccc3)CC2)c(OC)c1	?	2	5.1%	25%
C=CCN1C(=O)C2(/C(=C(\O)c3ccc4c(c3)OCCO4)C(=O)C(=O)N2CCCOC)c2ccccc21 (stereo not given)	-8%	-6	4.4%	0%
N/C(=N\OC(=O)Cc1ccccc1[N+](=O)[O-])c1ccncc1	0%	-1	-0.8%	4%
COc1ccc(C(=O)CN(CCC(=O)O)S(=O)(=O)c2ccc([N+](=O)[O-])cc2)cc1	1%	nt	3.4%	nt
Cc1ccccc1NC(=O)N1CCc2ccccc2C1	9%	1	-0.3%	-55%
Cc1cc(C)nc(N/C(=N\S(=O)(=O)Cc2ccccc2)Nc2ccc(F)c(Cl)c2)n1	-15%	-5	-1.4%	-4%
CC(OC(=O)c1ccccn1)C(=O)Nc1ccc(C(F)(F)F)cc1 (stereo not given)	-9%	nt	-1.7%	nt
COc1ccc(-c2nc(-c3ccncc3)no2)cc1	-7%	nt	-1.9%	-64%
O=C(CCCCCNC(=O)c1ccccc1)C[N+](=O)[O-]	10%	6	0.0%	-2%
COCOc1cc(O)c2c(=O)c(OCOC)c(-c3ccc(OCOC)c(OCOC)c3)oc2c1	9%	nt	-3.0%	nt
Cc1ccc(C)c(NC(=O)COC(=O)CCc2ccc(S(=O)(=O)N3CCOCC3)cc2)c1	-7%	10	-0.7%	3%
Nn1nnc2ccccc21	19%	-2&-1	1.0%	-14%
CC(NC(=O)Nc1ccc(F)cc1F)c1ccc2c(c1)OCO2 (stereo not given)	0%	nt	-1.5%	-8%

(cont.)
SMILES	Rango dissoc inh	GLA inh pH 4.5	Rango complex inh	miR-21 FLuc
O=S1(=O)N=C(Nc2ccc(N3CCOCC3)c(Cl)c2)c2ccccc21	-15%	-3	?	-59%
CCCCc1ccc(NC(=O)COc2ccc(C(=O)Nc3ccccc3OC)cc2)cc1	nt	9	nt	-7%
Cc1ccc(NC(=O)COC(=O)CCC(=O)c2ccc(Cl)cc2)cc1S(=O)(=O)N(C)C	-12%	-3	0.6%	-1%
O=C(OC(C(=O)NCc1ccco1)C(OC(=O)c1ccccc1)C(=O)NCc1ccco1)c1ccccc1 (stereo not given)	-5%	-5	2.9%	-4%
CCN(C(=O)c1cnc(OC)cc1C(F)(F)F)c1ccc(Cl)cc1	-6%	0	-1.5%	3%
COc1ccccc1-c1nnc(SCC(=O)NC2CC2)n1C	-3%	nt	-2.2%	nt
C#CCNC(=O)C1=C[C@@H](c2ccc(C(F)(F)F)cc2)[C@H](CCCO)[C@@H](OCC)O1	-14%	-11	-1.1%	3%
CC(=O)c1ccccc1NS(C)(=O)=O	-1%	2	0.0%	-1%
O=C(c1ccc(S(=O)(=O)N2CCCCC2)cc1)N1CCN(CCN2C(=O)c3cccc4cccc(c34)C2=O)CC1	-8%	-9	-2.3%	7%
Nc1c(C(=O)OCC(=O)NCc2ccccc2)[nH]c(=O)[nH]c1=O	-12%	1	0.2%	-13%
COc1ccc(Cl)cc1NC(=O)c1ccco1	-5%	-9	-1.0%	2%
O=C(O)c1ccc(COc2ccc(/C=N/NC(=O)c3cccs3)cc2)cc1	-11%	-8	0.1%	-42%
O=C(O)/C=C/c1cccc2c1OCCO2	11%	1	-2.4%	8%
CCN(CC)CCNC(=O)Cn1ncc2ccccc2c1=O	-2%	-7	-2.8%	-1%
CCc1ccccc1NC(=O)CN(C)S(=O)(=O)c1ccc(-c2ccc(=O)[nH]n2)s1	10%	nt	-2.3%	-8%
CN(C)c1ccc(CN(C(=O)COc2ccc(F)cc2)C2CCS(=O)(=O)C2)cc1 (stereo not given)	-5%	4	1.9%	-2%
Cc1cc(NC(=O)CSCC(=O)NC(C)c2ccccc2)no1 (stereo not given)	12%	nt	-0.8%	nt
O=C(COC(=O)CCc1c[nH]c2ccccc12)NCc1ccc(Cl)cc1	-6%	-6	-0.4%	4%
O=C(c1cccn2c(=O)c3cc(Cl)ccc3nc12)N1CCOCC1	?	13	?	-9%
CC(NC(=O)c1ccccc1O)c1ccccc1 (stereo not given)	-11%	4	-0.2%	-1%
Cc1ccc(C(=O)N2CCC(C(N)=O)CC2)cc1C	-5%	-25	-2.7%	-6%
O=[N+]([O-])c1ccc(NCCCN2CCOCC2)c([N+](=O)[O-])c1	-4%	-5	-2.0%	1%
COc1cccc(C(=O)N/N=C(/CCC(=O)O)c2ccccc2)c1	-15%	2	0.1%	-11%
CC(=O)N1CCN(S(=O)(=O)c2ccc3c(c2)CC(=O)N3)CC1	4%	nt	-2.3%	nt
NNC(=O)c1sc2nc(N3CCOCC3)c3c(c2c1N)CCCC3	?	8	?	-8%

One compound at a time (already shown). Screens in order: Rango dissoc inh | GLA inh pH 4.5 | Rango complex inh | miR-21 FLuc
Nc1c(C(=O)OCC(=O)NCc2ccccc2)[nH]c(=O)[nH]c1=O across the screens: -12% | 1 | 0.2% | -13%
CCCCc1ccc(NC(=O)COc2ccc(C(=O)Nc3ccccc3OC)cc2)cc1 across the screens: nt | 9 | nt | -7%
O=C(c1ccc(S(=O)(=O)N2CCCCC2)cc1)N1CCN(CCN2C(=O)c3cccc4cccc(c34)C2=O)CC1 across the screens: -8% | -9 | -2.3% | 7%
Cc1ccc(NC(=O)COC(=O)CCC(=O)c2ccc(Cl)cc2)cc1S(=O)(=O)N(C)C across the screens: -12% | -3 | 0.6% | -1%
O=C(O)/C=C/c1cccc2c1OCCO2 across the screens: 11% | 1 | -2.4% | 8%

Other compounds.
SMILES	Rango dissoc inh	GLA inh pH 4.5	Rango complex inh	miR-21 FLuc
CC1(c2nnc(-c3cccc(Cl)c3)o2)CC(c2ccccc2Br)=NO1 (stereo not given)	-11%	nt	-0.3%	1%
Cc1cc(-c2nnc(CCC(=O)NC(C)c3ccc(F)cc3)o2)no1 (stereo not given)	2%	-11	-1.9%	-1%
Cc1cccc(C)c1OCC(=O)Nc1cc(Cl)ccc1-n1cncn1	1%	nt	0.2%	nt
COCCOC(=O)C1=C(C)NC(=S)NC1c1ccc(OCC(=O)N2CC(C)OC(C)C2)c(OC)c1 (stereo not given)	-3%	nt	0.0%	nt
CN1C(=O)[C@@H]2C[C@@]3([C@@]45C[C@H]6C(=O)N(C)[C@@H](Cc7ccccc7)C(=O)N6[C@@H]4Nc4ccccc45)c4ccccc4N[C@H]3N2C(=O)[C@@H]1Cc1ccccc1	-18%	nt	-1.8%	nt
Cc1ccc(C(=O)NNC(=S)NCC2CCCO2)cc1[N+](=O)[O-] (stereo not given)	0%	nt	0.5%	-5%
O=C(NC1CCCCNC1=O)c1ccc(Cl)cc1 (stereo not given)	0%	-1	3.5%	-14%
COc1ccccc1-n1cnc2cc(C(=O)NCc3ccco3)ccc21	13%	-7	0.7%	-13%
O=C(NC(=S)Nc1ccc(S(=O)(=O)Nc2nccs2)cc1)c1cccc(F)c1	1%	-3	0.4%	-10%
COc1ccccc1CCNC(=O)CSc1nnc2ccc(-c3cccnc3)nn12	-8%	4	-3.2%	-7%
O=C(NNc1cccc([N+](=O)[O-])c1)/C(=C\c1cccnc1)NC(=O)c1ccccc1	10%	-4	0.5%	1%
CN(C(=O)NC1CC(=O)N(c2ccc3c(c2)OCCO3)C1)c1ccccc1 (stereo not given)	-7%	nt	4.4%	nt
O=C(Nc1cccc(O)c1)C1CC(c2ccc(Cl)cc2)=NO1 (stereo not given)	6%	nt	2.0%	-6%
CCN(CCO)c1ncnc2c1sc1nc(C(C)C)c3c(c12)CC(C)(C)OC3	2%	-11	-2.7%	-18%
CCn1cc(C(=O)O)c(=O)c2cc(F)c(N3CCN(C(=S)NC(=O)c4ccccc4Cl)CC3)cc21	-11%	-5	7.5%	1%
CCC(=O)Nc1ccc(NC(=O)c2ccccc2)nc1	-3%	-2	4.4%	0%
COc1ccc(C(=O)N2CCCC(c3nc(-c4cccs4)no3)C2)cc1OC (stereo not given)	-7%	8	-3.2%	-6%
COc1ccccc1/C=C/C=N/n1c(-c2ccc(Cl)cc2Cl)n[nH]c1=S	-1%	-1	-0.4%	-1%
O=C(Nc1sc2c(c1C(=O)O)CCCC2)c1ccccc1Cl	0%	nt	3.6%	20%
CCNc1nc(-c2ccc(OC(F)F)cc2)c(C)s1	-10%	1	-2.8%	-52%
Cc1ccc(C)c(S(=O)(=O)N2CCN(C(=O)c3ccc(-n4cncn4)c([N+](=O)[O-])c3)CC2)c1	-7%	nt	-0.7%	nt
COc1ccc(NC(=O)CN2C(=O)COc3ccc(S(=O)(=O)N4CCCCC4)cc32)cc1OC	10%	nt	-1.4%	0%&-6%
Cc1ccc(C(=O)OCC(=O)Nc2sc3c(c2C#N)CCCCC3)cc1NC(=O)c1ccco1	0%	0	-3.1%	-33%
c1ccc(OCc2nnc3n2CCCCC3)cc1	-1%	0	0.1%	1%
CCOC(=O)N1CCN(C(=O)Cn2cnc3ccccc3c2=O)CC1	-3%	6	1.3%	0%

Going on with the list:
SMILES	Rango dissoc inh	GLA inh pH 4.5	Rango complex inh	miR-21 FLuc
Cc1ccc(NC(=O)c2ccc(N3CCOCC3)c([N+](=O)[O-])c2)cc1S(=O)(=O)N1CCOCC1	-2%	5	8.6%	0%
CCCc1nnc(NC(=O)c2nc(S(=O)(=O)Cc3ccc(C)cc3)ncc2Cl)s1	2%	nt	6.0%	?
CCOC(=O)C1=C(C)C2C3C(=O)N(c4cc(C)ccc4C)C(=O)C3C1(C)C1C(=O)N(c3cc(C)ccc3C)C(=O)C21 (stereo not given)	10%	-10	-5.8%	11%
Cc1nc2c(C)cccn2c(=O)c1NC(=O)c1ccc2c(c1)OCO2	1%	nt	4.5%	nt
CCC(C)C(=O)Nc1nccs1 (stereo not given)	6%	10	3.1%	-16%
COc1ccc(CN2CNc3nc4ccccc4n3C2)cc1	0%	13	-1.8%	1%

Quoted at random: four compounds from above, in no set order.
SMILES	Rango dissoc inh	GLA inh pH 4.5	Rango complex inh	miR-21 FLuc
COc1ccc(C(=O)N2CCCC(c3nc(-c4cccs4)no3)C2)cc1OC (stereo not given)	-7%	8	-3.2%	-6%
CCc1ccccc1NC(=O)CN(C)S(=O)(=O)c1ccc(-c2ccc(=O)[nH]n2)s1	10%	nt	-2.3%	-8%
O=C(O)/C=C/c1cccc2c1OCCO2	11%	1	-2.4%	8%
COc1cccc(C(=O)N/N=C(/CCC(=O)O)c2ccccc2)c1	-15%	2	0.1%	-11%
